Assay outcomes from PubChem BioAssay.
StopGo RLuc: Primary qHTS Assay for Foot and Mouth Disease Virus Antivirals against NCGC Sytravon and CBC Compound Libraries: Renilla Luciferase Signal; HEK cells with a luciferase reporter of 2A StopGo recoding; Potency, µM (titrated, usually from 57.5 µM), for the others: at the top dose signal change, negative = less light; 120,000 tested, 0.32% active; AID 1745857, 2022; active means well fitted falling curve with a large enough effect; inconclusive means small, poorly fitted or top-dose-only effect; inactive means no such curve, though single readings can be large or run the other way; note: nearly all actives have a fitted effect of over 55% in size; overnight with compound
2A firefly: Primary qHTS Assay for Foot and Mouth Disease Virus Antivirals against NCGC Sytravon and CBC Compound Libraries: Firefly Luciferase Signal; HEK cells with a luciferase reporter of 2A StopGo recoding; Potency, µM (series often up to 57.5 µM), inactives show top-dose signal change, negative = less light; 120,000 tested, 0.23% active; AID 1745856, 2022; active = well fitted falling curve with a large enough effect; inconclusive = small, poorly fitted or top-dose-only effect; inactive = no such curve, though single readings can be large or run the other way; note: nearly all actives have a fitted effect of over 60% in size; overnight with compound
Numbers without * were called inactive; ? = inconclusive; & = joins results of further samples; [ ] = another dose, or the depositor's remark. % is set by controls: 0 for no effect and ±100 for the full control effect; potency is the fitted concentration of half-maximal effect.

smiles | StopGo RLuc | 2A firefly
Cc1cc(C)c2c(n1)nn1c(C)c(CCC(=O)Nc3cccc(C)c3C)c(C)nc21 | -11% | -7%
NC(N)=NCc1ccco1 | 11% | 22%
CCNC(=O)CN(CC)CCc1ccccc1 | -7% | -4%
COc1ccc2[nH]cc(C(C(=O)O)N3CCCCCC3)c2c1 (stereo not drawn) | 3% | 21%
O=C(Cc1ccc(C(F)(F)F)cc1)NCCc1ccccn1 | -13% | 22%
O=C(COC(=O)Cn1cnc2ccccc21)Nc1cccc(F)c1 | -16% | -7%
O=C1C=C(Nc2cccc(Cl)c2)CC2(CCCCC2)C1 | 13% | 0%
COc1ccc(C(=O)NCC(=O)OCc2ncc(-c3ccccc3)o2)cc1 | 9% | 0%
N#Cc1ccccc1NC(=O)Cn1cnc2onc(-c3cccc(F)c3)c2c1=O | -14% | -3%
O=C(NC1CCCCCC1)c1ccc2c(c1)sc1nc(-c3ccc(F)cc3)cn12 | -2% | 36%[activator]
O=C(CSc1nc(-c2ccccc2)cc(=O)[nH]1)Nc1ccc(Br)cc1 | -10% | -8%
COc1cc(C(=O)Nc2nonc2-c2ccc(Cl)cc2)cc(OC)c1OC | 7% | -6%

Shown with values under each structure: entries from further up
Results follow in this order: StopGo RLuc	2A firefly
O=C(Cc1ccc(C(F)(F)F)cc1)NCCc1ccccn1
    -13%	22%
O=C1C=C(Nc2cccc(Cl)c2)CC2(CCCCC2)C1
    13%	0%

Further compounds follow:
smiles | StopGo RLuc | 2A firefly
Cc1ccc(-c2cc(C(=O)NC3=NCCS3)c3ccccc3n2)s1 | 116%[activator] | 126%[activator]
O=C(NCc1ccc(Cl)cc1)C(=O)NCC(c1ccco1)S(=O)(=O)c1cccs1 (stereo not drawn) | -12% | -31%
Cc1cccc(N(C)C(=O)CCS(=O)(=O)c2ccc3c(c2)oc(=O)n3C)c1 | -8% | -17%
COc1cc(OC)cc(C(=O)Nc2cccc(-c3nncn3C)c2)c1 | 3% | 30%
Cc1cc(N)c2cc(NC(=O)Nc3ccc4nc(C)cc(N)c4c3)ccc2n1 | -3% | -4%[11.5 µM]
O=C(CSc1ccc2ccccc2n1)NC1CCS(=O)(=O)C1 (stereo not drawn) | -7% | 39%[activator]
Cc1cccc(C(=O)NC2CCSC2=O)c1 (stereo not drawn) | 2% | -8%
Cc1ccc(C(NC(=O)Cc2cccs2)C(=O)Nc2ccc3c(c2)OCCO3)cc1 (stereo not drawn) | 23% | 2%
Cc1ccccc1COC(=O)c1nn(Cc2ccccc2)c(=O)c2ccccc12 | 31%[activator] | -4%
Cc1sc(NC(=O)CC(C)(C)C)c(C#N)c1C | -7% | 23%
CN(C)c1ccc(S(=O)(=O)N2CCCCC2)cc1NC(=O)C1CCN(c2ccc(C#N)cn2)CC1 | -2% | -10%
COc1ccc(-c2nc3cc(NC(=O)COc4ccccc4Cl)ccc3o2)cc1 | 6% | 117%[activator]

The list goes on, starting with the last 4 of the part before.
smiles | StopGo RLuc | 2A firefly
Cc1ccccc1COC(=O)c1nn(Cc2ccccc2)c(=O)c2ccccc12 | 31%[activator] | -4%
Cc1sc(NC(=O)CC(C)(C)C)c(C#N)c1C | -7% | 23%
CN(C)c1ccc(S(=O)(=O)N2CCCCC2)cc1NC(=O)C1CCN(c2ccc(C#N)cn2)CC1 | -2% | -10%
COc1ccc(-c2nc3cc(NC(=O)COc4ccccc4Cl)ccc3o2)cc1 | 6% | 117%[activator]
Cc1ccnc(SC(C(=O)c2ccccc2)c2ccccc2)n1 (stereo not drawn) | 9%[1.06 µM] | 0%
O=C(c1cc2ccc3cccnc3c2[nH]1)N1CCN(c2ccccc2)CC1 | -8% | 3%
Cc1ccccc1Nc1c(-c2ccc(Br)o2)nc2ccc(Cl)cn12 | 1% | 0%
Fc1ccc(N/N=C/c2ccc(Br)cc2)c(F)c1 | 31%[activator] | 184%[activator]
O=C(Nc1ccc(C(F)(F)F)cc1)C1CCN(c2nc3ccccc3o2)CC1 | ? | -24%
Cc1csc2nc(COc3ccc(NC(=O)COc4ccccc4F)cc3)cc(=O)n12 | -8% | 12%
CC(C)CN(C(=O)c1cc(-c2ccco2)nc2ccccc12)c1c(N)n(CC(C)C)c(=O)[nH]c1=O | 1% | 14%
Cc1ccc(S(=O)(=O)c2nc(S(C)(=O)=O)sc2N(C)Cc2ccccc2)cc1 | 84%[activator] | -10%
CCc1ccccc1NC(=O)c1cc(C2CC2)nc2ccccc12 | 11% | 4%
COc1ccc(S(=O)(=O)NCC(c2cccs2)S(=O)(=O)c2ccc(C)cc2)cc1F (stereo not drawn) | 230%[activator] | -24%
Cc1ccc(C)c(S(=O)(=O)N2CCN(C(=O)Cc3c(C)nn(C)c3C)CC2)c1 | ? | ?
COc1ccc(C2=NOC(C(=O)Nc3cc(C)nn3-c3ccccc3)C2)cc1 (stereo not drawn) | -11% | 2%
CCOC(=O)c1ccc(NC(=O)CCCn2c(=O)c3cccn3c3ccccc32)cc1 | -5% | -13%
S=C(NCCc1c[nH]c2ccccc12)Nc1cccc(Cl)c1 | 123%[activator] | 44%[activator]
CCCSc1nc2c(c(=O)[nH]c(=O)n2C)n1CCOCC | -9% | 4%
COC(=O)c1cc(NC(=O)CCc2c(C)nc3c4c(C)cc(C)nc4nn3c2C)cc(C(=O)OC)c1 | -7% | -3%
COc1ccc(-c2cc3ncc(C(=O)c4cc([N+](=O)[O-])ccc4O)cn3n2)cc1 | -8% | -14%
Cc1c(CC(=O)N2CCCC2)c(=O)oc2c(C)c(O)ccc12 | 2% | 11%
Nc1c(-c2nc(-c3ccc4c(c3)OCO4)cs2)c2ccccn2c1C(=O)c1ccc(Cl)cc1 | -18% | -18%
COCCCNC(=O)C(=O)Nc1c2c(nn1-c1cccc(Cl)c1)CSC2 | -17% | -21%
CCC(=O)Nc1cccc(-c2nc3cc(OC)ccc3o2)c1 | 15% | 173%[activator]
O=C(Cn1ncc2c3ccccc3n(Cc3ccc(Cl)cc3)c2c1=O)NCc1cccs1 | -5% | -9%
CC(C)c1ccc(-c2csc(NC(=O)Cn3cnc4c3c(=O)n(C)c(=O)n4C)n2)cc1 | -6% | 81%[activator]
Cc1ccc(NC(=O)c2ccc(CN3CCN(C)CC3)cc2)cc1Nc1nccc(-c2cccnc2)n1 | -17% | -8%
COc1cc(C(=O)Nc2ccc3c(c2)N(C2CCCC2)C(=O)c2ccccc2S3)cc(OC)c1OC | 14% | -4%
CC(C)c1ccc(CNCc2ccco2)cc1 | 8% | 208%[activator]
Cc1ccc(-c2nc(CS(=O)(=O)CC(=O)N3CCc4ccccc43)c(C)o2)cc1 | 1% | 0%
N#Cc1c(OCC(=O)N2CCCCC2)nc(-c2ccco2)c2c1CCC2 | 10% | 5%
CCOc1ccc(OCCC(=O)OCC(=O)Nc2c(F)cccc2F)cc1 | -12% | -1%
COc1ccccc1N1CCN(c2ncc3c(n2)CCCC3=O)CC1 | 16% | 177%[activator]
COc1cccc(-n2cc(C(=O)Oc3cccc(C(F)(F)F)c3)c3ccccc3c2=O)c1 | -16% | -17%
COC(=O)c1ccc(OCC2c3cc(OC)c(OC)cc3CCN2C(=O)c2ccccc2F)cc1 (stereo not drawn) | -18% | ?
COc1ccccc1-c1noc(-c2ccc(N(C)Cc3ccccc3)c([N+](=O)[O-])c2)n1 | -12% | -4%
CCOc1ccc(-c2nc(CSCC(=O)NCCCN3CCOCC3)c(C)o2)cc1 | 6% | -14%
CC(=O)Nc1cc(C(=O)Nc2ccc3c(c2)N(C)C(=O)c2ccccc2S3)ccc1C | 70%[activator] | 29%
CCC(C)c1ccc(C(CC)NC(=S)NCc2ccc(F)cc2)cc1 (stereo not drawn) | ? | ?
O=C(COC(=O)c1c[nH]c2ccccc12)Nc1cccc2ccccc12 | -6% | -11%
CCC(CC)n1c(COc2ccccc2Cl)nnc1SCC1CC1(Cl)Cl (stereo not drawn) | ? | ?
CCOC(=O)/C(C#N)=C\c1cc(Br)c(OC)c(OCC)c1 | 14% | 13%
COc1ccc(NC(=O)Cn2c(=O)n(-c3ccc(C)cc3)c(=O)c3c2cnn3C)cc1 | -2% | -14%
CCCN1CCN(c2ncnc3sc(C(=O)Nc4ccc(N(CC)CC)cc4C)c(C)c23)CC1 | -21% | -9%
CC(=O)NCCc1ccc(C(=O)COC(=O)c2ccc(C)cc2O)s1 | -8% | 29%
O=C(Nc1cccc(S(=O)(=O)NC2=NCCC2)c1)c1cccc(Br)c1 | 89%[activator] | 3%
O=C(Nc1ccccc1-c1ccccc1)c1cccc(F)c1 | 16% | 0%
CCOC(=O)c1cc(S(=O)(=O)Nc2cc(OC)ccc2OC)[nH]n1 | 9% | -1%
O=C(CNc1ccc(F)c(Cl)c1)Nc1cc(Cl)ccc1-n1cncn1 | 28% | -11%
Cc1ccc(NC(=O)c2nn(C)c3c2CCc2sccc2-3)cc1F | 8% | 0%
CCc1cc(CC)n(-c2nc3c(c(=O)n(CC)c(=O)n3C)n2Cc2ccc(OC)cc2)n1 | 20% | -5%
CC1(C)Cc2c(sc(NC(=O)C(N)=O)c2C#N)CO1 | -5% | 77%[activator]
N#Cc1ccc(NC(=O)COCc2cc(-c3ccc(F)cc3)on2)cc1 | -13% | -24%
CCN(CC)S(=O)(=O)c1ccc2c(c1)N(CC(=O)N1CCN(c3ccc(OC)cc3)CC1)C(=O)CO2 | -4% | -14%
Cc1ccccc1/C=C/C(=O)c1ccco1 | -2% | 20%
CC(C(O)c1ccccc1)N(C)CCOC(c1ccccc1)c1ccccc1 (stereo not drawn) | -14% | -30%
C=CCc1cc(OC)c(O)c(C(=O)NCCO)c1 | -12% | -7%
C/C(=C/C(=O)c1ccccc1)NCC(O)CN/C(C)=C\C(=O)c1ccccc1 (stereo not drawn) | 0% | 11%
Cc1ccc(-n2nnnc2SCC(=O)NCCc2ccccc2)cc1C | 14% | -6%
COc1cc(C(=O)Nc2ccc(-c3nc4cc(C)c(C)cc4o3)cc2)cc(OC)c1OC | -5%&-17% | 0%&-3%
COc1cccc(C(=O)NCc2cn3cccc(C)c3n2)c1 | -17% | -15%
Cc1ccccc1CNC(=O)c1cc(=O)[nH]c2ccccc12 | 13% | 3%
CCCCCCC(=O)Nc1ccc2nc3c(=O)n(C)c(=O)n(C)c3nc2c1C | 5% | 3%

The list continues.
smiles | StopGo RLuc | 2A firefly
Oc1ccc(Nc2nc(-c3ccccc3O)nc3ccccc23)cc1 | 2% | 34%[activator]
CCOc1ccc(OCC(=O)NCCS(=O)(=O)N2CCN(c3ccc(F)cc3)CC2)cc1 | -3% | -9%
Brc1cccc(-c2nc3cc4c(cc3[nH]2)OCCO4)c1 | 27% | 150%[activator]
CN(Cc1ccc(OC(F)F)cc1)C(=O)c1n[nH]c(=O)c2ccccc12 | -5% | 3%
Cc1ccc(C(C)NC(=O)CCCOc2ccccc2C)o1 (stereo not drawn) | 5% | 0%
O=C(CSc1c2c(nc3ccc(Cl)cc13)CCCC2)N1CCN(c2ccc(Cl)cc2)CC1 | -18% | -5%
Cc1cc(C)c(Cn2c3ccccc3c3cnn(CC(=O)NC4CCC(C)CC4)c(=O)c32)c(C)c1 (stereo not drawn) | -24% | 27%
Cc1ccccc1NC(NC(=O)c1ccccc1C)C(Cl)(Cl)Cl (stereo not drawn) | 9% | 6%
O=C(c1ccc(-c2ccccc2)cc1)N(Cc1cccs1)C1CC1 | 213%[activator] | 76%[activator]
COc1cc(C2=NOC(C(=O)Nc3cc(C)nn3-c3ccccc3)C2)cc(OC)c1OC (stereo not drawn) | -2% | -3%
CN(C)c1nc(N)nc(CSc2ccccc2Cl)n1 | 15% | 201%[activator]
CC(C)n1ncc2cc(C(=O)N3CCCCc4ccccc43)cnc21 | 10% | -1%
CCOc1ccc(C(=O)Nc2ccc3nc(NC(C)=O)sc3c2)cc1OCC | 10% | 65%[activator]
CCOC(=O)c1c(NC(=O)CSc2nc(-c3ccc(OC)cc3)cc(C(F)(F)F)n2)sc(C)c1C | -8% | -1%
COc1ccc(CNC(=O)CSC2=NC3(CCCCC3)N=C2c2cccs2)cc1 | 17% | 0%
O=C(CN1CCN(c2ncccn2)CC1)N1N=C(c2cc3ccccc3o2)CC1c1ccco1 (stereo not drawn) | -9% | 102%[activator]
NC(=O)c1ccc(C(=O)N2CCC(c3nc4cc(Cl)ccc4o3)CC2)cc1 | ? | -20%
CCCCN(CC)C(=O)c1cn[nH]c1-c1ccc(Cl)cc1 | -15% | -17%
COc1ccc(NC(=O)CCc2c[nH]c3ccccc23)c(OC)c1 | 5% | 0%
CC1CCN(C(=O)Cn2cc(SCc3cccc(F)c3)c3ccccc32)CC1 | 4% | 26%
CCOc1ccc(OCC)c(NC(=O)c2cc3ccccn3n2)c1 | -15% | 130%[activator]
COc1ccc(-c2nc(/C=C/C(=O)NC(C)C3CC4CCC3C4)cs2)cc1 (stereo not drawn) | ? | -16%
CN(Cc1cccc(Cl)c1)Cc1cc(=O)n2c3c(sc2n1)CCCC3 | -9% | -2%
Cc1ccc(CCNC(=O)CCS(=O)(=O)c2cc3c(cc2Cl)NC(=O)CO3)cc1 | 0% | 4%
O=C(NCc1cccnc1)C1CCN(Cc2cc3ccccc3n2Cc2ccccc2)CC1 | 5% | -2%
CCCc1nn2c(=O)cc(COC(=O)c3ccccc3NC(=O)C3CCCCC3)nc2s1 | -3% | 6%
CCCNC(=O)C1CCCN(Cc2ccc(C(F)(F)F)cc2)C1 (stereo not drawn) | 1% | 3%
